Screening data: PubChem BioAssay, National Center for Advancing Translational Sciences (NCATS)
gsp ag: qHTS for Agonist of gsp, the Etiologic Mutation Responsible for Fibrous Dysplasia/McCune-Albright Syndrome: qHTS | gsp mutant cells, cAMP HTRF, 30 min; control for the full effect not named in the record | AID 624287, 2012 | hit rate 0.13% among 340,000 | Potency, µM (series often up to 76.9 µM), for inactives: at the highest dose activation (cAMP increase), usual class: activators; active = well fitted activation curve with a large enough effect; inconclusive = small, poorly fitted or top-dose-only effect, or another doubt; inactive = no such curve, though single readings can be large or run the other way; cell line not stated here;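 note: phosphodiesterase inhibitor Ro 20-1724 added with compounds to block cAMP breakdown; potency is the fitted concentration of half-maximal effect; nearly all actives have a fitted effect of over 60% in size; about a fifth of the inactives were tested at one dose only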
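Cells stably selected in G418 were plated at 2000/well, grown 16-24 hr, then given compounds in DMSO with the PDE inhibitor […] (300 uM solution added) for 30 min at 37C; cAMP was read by HTRF.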
D2 ag: Beta-Arrestin HTS for Positive Allosteric Modulators of the Human D2 Dopamine Receptor: Agonists | D(2) dopamine receptor (Homo sapiens), P14416 | DiscoveRx PathHunter D2 beta-arrestin, luminescence, 90 min; 100% = 57 uM dopamine signal | activation, % (test concentration not listed) | hit rate 0.084% among 360,000 | AID 624465, 2012; in the data active = activation above about 40%; inconclusive = about 15% to 40%; inactive = below about 15%; note: compound concentration not given in the record; the text of the record calls up to 30% inactive
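DiscoveRx PathHunter D2 beta-arrestin cells (2,100/well) attached overnight, then compound-stimulated 90 min at 37 C in HBSS/10 mM HEPES/0.1% Tween-20 buffer; beta-galactosidase complementation read by luminescence after 1 h at ambient temperature. Dopamine 57 uM final (EC100) as control.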
gsp antag: qHTS for Antagonists of gsp, the Etiologic Mutation Responsible for Fibrous Dysplasia/McCune-Albright Syndrome: qHTS. Potency, µM (doses to about 76.9 µM), for the others: at the top dose activity change, negative = inhibition, most hits filed as inhibitors. hit rate 0.4% among 340,000. gsp-mutant cells, cAMP HTRF, 30 min; control for the full effect not named in the record; active = falling curve of any shape with a large fitted effect; inconclusive = falling curve, mostly with a smaller effect; inactive = flat or rising curve; cell line not stated here;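 note: intracellular cAMP measured with PDE inhibitor Ro 20-1724 present during compound exposure; potency is the fitted concentration of half-maximal effect; % is set by controls: 0 for no effect and ±100 for the full control effect; nearly all actives have a fitted effect of over 65% in size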
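HTRF cAMP measurement after 30 min RT detection following 30 min, 37C compound treatment alongside […] (added as 300 uM solution) in G418-selected cells seeded at 2000/well and grown 16–24 h.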
Six1-Eya2 inh: qHTS Assay for Inhibitors of the Six1/Eya2 Interaction | Homeobox protein SIX1 (Homo sapiens) + Protein phosphatase EYA2 (Homo sapiens), … | hit rate 0.56% among 360,000 | activity change, % (no concentration beside the values) | AlphaScreen GST-Six1/His-Eya2 binding, biochemical; active compounds read low; control for the full effect not named in the record; in the data active = activity change below about -65%; inconclusive = about -30% to -65%; inactive = above about -30%; note: % is set by controls: 0 for no effect and ±100 for the full control effect
Target sequence (O00167 whole entry, looked up): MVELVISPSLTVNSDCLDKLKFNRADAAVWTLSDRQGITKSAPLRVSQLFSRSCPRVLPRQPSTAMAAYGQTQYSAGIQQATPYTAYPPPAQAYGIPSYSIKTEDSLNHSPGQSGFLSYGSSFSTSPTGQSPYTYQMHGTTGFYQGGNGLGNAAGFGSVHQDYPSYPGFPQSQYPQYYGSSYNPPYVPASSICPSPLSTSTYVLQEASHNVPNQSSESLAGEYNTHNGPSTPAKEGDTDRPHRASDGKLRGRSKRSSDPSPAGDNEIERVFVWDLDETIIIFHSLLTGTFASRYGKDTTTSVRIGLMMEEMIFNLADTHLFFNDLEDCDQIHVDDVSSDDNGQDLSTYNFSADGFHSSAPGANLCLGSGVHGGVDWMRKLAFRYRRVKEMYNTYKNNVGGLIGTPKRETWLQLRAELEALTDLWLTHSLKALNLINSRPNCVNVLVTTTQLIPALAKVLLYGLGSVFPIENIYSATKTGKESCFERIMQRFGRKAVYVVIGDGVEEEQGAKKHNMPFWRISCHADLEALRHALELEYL
Target sequence (Q15475 whole entry, looked up): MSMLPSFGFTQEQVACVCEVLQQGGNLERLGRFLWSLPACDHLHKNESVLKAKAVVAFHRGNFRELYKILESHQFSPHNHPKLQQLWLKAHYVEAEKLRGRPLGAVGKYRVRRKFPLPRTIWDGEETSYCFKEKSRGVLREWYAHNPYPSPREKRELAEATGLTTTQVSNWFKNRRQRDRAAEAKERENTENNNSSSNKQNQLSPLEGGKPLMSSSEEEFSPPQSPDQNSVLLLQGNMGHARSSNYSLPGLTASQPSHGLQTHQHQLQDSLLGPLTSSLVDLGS
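AlphaScreen with GST-Six1 and His-Eya2 (5X mix: 250 nM and 500 nM), glutathione donor and nickel acceptor beads; buffer 50 mM Tris pH 8.0, 300 mM NaCl, 1 mM TCEP; 1 h at 37 C in the dark.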
D2 potentiator: Beta-Arrestin HTS for Positive Allosteric Modulators of the Human D2 Dopamine Receptor: Potentiators; D(2) dopamine receptor (Homo sapiens), P14416; DiscoveRx D2 beta-arrestin cells, luminescence, 90 min; 100% = 57 uM dopamine signal; potentiation, % (no concentration beside the values); hit rate 0.23% among 360,000; AID 624464, 2012; active = potentiation of 50% or more; inconclusive = 30% to 50%; inactive = 30% or less;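 note: compound concentration not given in the record; tested on top of an EC20 dose of dopamine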
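D2 cells co-treated with compound plus 50 nM dopamine (EC20) for 90 min at 37 deg C to detect potentiation. Beta-arrestin recruitment was read as enzyme-fragment luminescence after 1 h at ambient temperature. Full response was set by 57 uM dopamine.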
CtBP-E1A inh: qHTS Assay for Inhibitors of the CtBP/E1A Interaction; CtBP / adenovirus E1A interaction (AlphaScreen); AlphaScreen GST-E1A/His-CtBP binding, 1536-well; active compounds read low; control for the full effect not named in the record; hit rate 0.49% among 340,000; activity change, % (no concentration beside the values); AID 651724, 2012; in the data active means activity change below about -65%; inconclusive means about -30% to -65%; inactive means above about -30%; note: % is set by controls: 0 for no effect and ±100 for the full control effect
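In 5 uL wells, 23 nL compound meets equimolar GST-E1A and His-CtBP (5X stock 125 nM each) for 2 h, 37 °C. Beads (5X, 50 ug/mL) then 1 h, 37 °C, dark.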
An asterisk follows results filed as active; ? = inconclusive; / = not tested or not shown; [ ] = remark or other dose.

SMILES	gsp ag	D2 ag	gsp antag	Six1-Eya2 inh	D2 potentiator	CtBP-E1A inh
O=Cc1c(NCc2ccc(Cl)cc2)c2ccccc2[nH]c1=O	-16%	3.4	-6%	-8	-39	/
Cc1cc(C(=O)NNC(=O)c2cccs2)c(C)o1	0%	-5.9	9%	4	-4	0
COc1ccc(C)c2sc(=NC(=O)C(C)C)n(C)c12	?	-5.5	5%	6	-5	7
Cc1ccc2nc(/C(C#N)=C\c3ccc(Oc4ccc(C(F)(F)F)cc4[N+](=O)[O-])cc3)[nH]c2c1	7%	5.2	5%	5	22	6
O=C1CCCN2N=C(SCC(=O)Nc3ccc(F)cc3F)SC2=N1	1%	-3.1	-3%	-5	-2	1
O=C(Nc1cccc(F)c1)N1CCN(C(=O)c2ccco2)CC1	7%	-0.8	-6%	3	-3	3
CC(C)N(Cc1ccccc1)C(=O)CN1C(=O)NC2(CCCCCC2)C1=O	?	-2.9	1%	8	-3	/
CCC1CCCCN1S(=O)(=O)c1ccc(C(=O)Nc2nnc(-c3cccs3)o2)cc1 (stereo not given)	5%	2.8	?	-1	2	-26
COC(=O)C1=C(C)NC(=O)NC1c1c(O)ccc2ccccc12 (stereo not given)	-6%	-0.8	0%	-9	-1	/
CC/C(C)=N/NC(=O)c1[nH]c2ccc(C)cc2c1-c1ccccc1	-7%	2.6	10%	-4	1	3
COc1ccc(CCNC(=O)c2nnn(-c3ccccc3OC)c2N)cc1OC	3%	0.8	4%	-4	3	0
CC(=O)OC[C@@H]1CN(Cc2ccccc2)C[C@H](n2cnc3c(NCc4ccc(F)cc4)ncnc32)O1	/	-3.4	/	-6	-1	-30
O=c1[nH]c(SCc2cccc(F)c2)nc2ccccc12	28%	-2.7	2%	2	2	/
Cc1cc(NS(=O)(=O)c2c(C)[nH]c(=O)[nH]c2=O)ccc1Br	10%	-4.5	5%	-7	-8	-3
NC(=O)CC1(CC(=O)O)CCCCC1	-51%[inhibitor]	0.6	-1%	4	3	11

Some of the entries above, set out differently.
> CC(=O)OC[C@@H]1CN(Cc2ccccc2)C[C@H](n2cnc3c(NCc4ccc(F)cc4)ncnc32)O1
  gsp ag: /; D2 ag: -3.4; gsp antag: /; Six1-Eya2 inh: -6; D2 potentiator: -1; CtBP-E1A inh: -30
> O=c1[nH]c(SCc2cccc(F)c2)nc2ccccc12
  gsp ag: 28%; D2 ag: -2.7; gsp antag: 2%; Six1-Eya2 inh: 2; D2 potentiator: 2; CtBP-E1A inh: /
> Cc1cc(NS(=O)(=O)c2c(C)[nH]c(=O)[nH]c2=O)ccc1Br
  gsp ag: 10%; D2 ag: -4.5; gsp antag: 5%; Six1-Eya2 inh: -7; D2 potentiator: -8; CtBP-E1A inh: -3
> NC(=O)CC1(CC(=O)O)CCCCC1
  gsp ag: -51%[inhibitor]; D2 ag: 0.6; gsp antag: -1%; Six1-Eya2 inh: 4; D2 potentiator: 3; CtBP-E1A inh: 11

The results go on.
SMILES	gsp ag	D2 ag	gsp antag	Six1-Eya2 inh	D2 potentiator	CtBP-E1A inh
CCOc1cc(/C=N/n2cnnc2)ccc1OS(=O)(=O)c1ccc(C)cc1	4%[15.4 µM]	-1.6	-10%	8	0	-15
CCc1nc2c(OCCn3cccc3)cccn2c1N(C)C(=O)c1ccc(OC)cc1	/	3.2	/	-6	-5	-6
O=C(Nc1nc2ccc(S(=O)(=O)N3CCCC3)cc2s1)c1ccco1	3%	-2.1	-26%	22	17	35
Cc1occc1C(=O)N/N=C/c1cccnc1	-32%[inhibitor]	-0.9	6%	1	0	-1
O=C(NCC(c1ccco1)N1CCN(c2ccc(F)cc2)CC1)C(=O)NC1CCCC1 (stereo not given)	7%	-3.1	6%	2	-4	-7
CN1CCN(c2nc3c(c(=O)n(C)c(=O)n3C)n2Cc2cccc(Br)c2)CC1	-9%	-7.6	-2%	-4	-4	-14
Nn1c(SCC(=O)NNC(=O)c2ccccc2)nnc1-c1ccccc1F	6%[15.4 µM]	-2.1	8%	10	-3	-2
Clc1cccc(Cl)c1Cn1cc(Br)cn1	-37%	-3.1	?	15	-7	20
COC(=O)C(C(=O)Nc1ccccc1C)C1CCCC1 (stereo not given)	2%	-2.8	-1%	0	-16	5
CCCCN1CCc2c([nH]c3ccccc23)C1=O	-11%	-3.1	4%	-3	-9	5
CCOc1cc(C(=O)NC(C)COC)cc(OCC)c1OCC (stereo not given)	-6%	-2.7	-3%	7	5	1
Cc1cccc(OCC(=O)NNC(=O)c2cc3ccccc3oc2=O)c1	-20%	-0.2	2%	0	-4	3
COc1ccc(-c2cnc3c(c2)C(=O)N([C@H](C)CO)C[C@@H](C)[C@@H](CN(C)C(=O)NC2CCCC2)O3)cc1	-40%[inhibitor]	-10	/	0	1	2
O=C(NCCNC(=O)c1ccco1)c1ccco1	2%[15.4 µM]	-4.2	8%	6	1	-1
O=C(CCCNC(=O)c1ccc(Cl)cc1)Nc1nccs1	1%	0.3	-22%	3	-13	-1

3 compounds from above, ordered by the value under D2 potentiator, smallest number first.
Compound | gsp ag | D2 ag | Six1-Eya2 inh | D2 potentiator | CtBP-E1A inh
CCCCN1CCc2c([nH]c3ccccc23)C1=O | -11% | -3.1 | -3 | -9 | 5
Nn1c(SCC(=O)NNC(=O)c2ccccc2)nnc1-c1ccccc1F | 6%[15.4 µM] | -2.1 | 10 | -3 | -2
COc1ccc(-c2cnc3c(c2)C(=O)N([C@H](C)CO)C[C@@H](C)[C@@H](CN(C)C(=O)NC2CCCC2)O3)cc1 | -40%[inhibitor] | -10 | 0 | 1 | 2

(continued)
SMILES	gsp ag	D2 ag	gsp antag	Six1-Eya2 inh	D2 potentiator	CtBP-E1A inh
CCOc1cc(/C=N/Nc2ccc(S(=O)(=O)Nc3ccccc3C(=O)O)cc2[N+](=O)[O-])cc(Cl)c1O	4%	-11	/	?	-19	-20
CCOc1ccc(NC(=O)NN2C(C)CCCC2C)cc1 (stereo not given)	-21%	-2.8	8%	-1	-6	0
CCN(CC)c1ccc(NC(=O)c2cccc(C)c2)cc1S(=O)(=O)Nc1ccccc1OC	-3%	0.2	2%	0	-4	-10
CC1CN(C(=O)c2cc3c(=O)n4ccccc4nc3n2C)CC(C)O1 (stereo not given)	?	-0.6	16%	3	1	-19
C=CCN(C(=O)CSC1=NC(=O)CN1C(C)=O)c1nc(C)c(-c2ccccc2)s1	-4%[15.4 µM]	-12	?	-3	-12	0
COc1ccc(OC)c(/C=N/NC(=O)c2cc[n+](Cc3ccccc3)cc2)c1	2%[15.4 µM]	2.5	-4%	3	-14	-2
O=C(Cn1ccc([N+](=O)[O-])n1)Nc1nccs1	-8%[15.4 µM]	-1.6	14%	-12	-12	10
O=C(CCS(=O)(=O)c1ccc(F)cc1)Nc1nc(-c2ccncc2)cs1	-25%	3.3	-21%	1	-12	/
Cc1ccc(OCCOc2ccc(Br)cc2/C=N\NC(N)=O)cc1	-49%[inhibitor]	2.6	2%	0	-3	/
COc1ccc(CC(=O)Nc2ccc(S(=O)(=O)Nc3nc(C)cc(C)n3)cc2)cc1	6%	-2.6	-12%	-6	-2	-5
O=C(Cn1[nH]c(=O)c2ccccc2c1=O)NCC1COc2ccccc2O1 (stereo not given)	9%	-3.4	1%	2	-2	7
Cc1ccc2nc(/C(C#N)=C\c3ccc(N4CCOCC4)o3)[nH]c2c1	-2%	5.5	-2%	?	-15	2
Cc1cccc(Sc2ccc([N+](=O)[O-])cc2[N+](=O)[O-])n1	4%[15.4 µM]	-2.4	-6%	-2	12	6
COc1ccc(CN2CCN(C(=O)CCC(=O)Nc3nnc(C4CCCCC4)s3)CC2)cc1F	?	-3.2	-6%	-5	-17	-8
CCOC(=O)/C(=C/C=C1\Sc2ccccc2N1CC)C(C)=O	-27%	-3.9	-2%	-11	-2	?
C=CCCN(C(C(=O)OC)C(C)C)S(=O)(=O)c1ccccc1Br (stereo not given)	/	-0.1	3%	18	0	8
C=CCn1c(=NC(=O)c2ccc(S(=O)(=O)N3CCc4ccccc4C3)cc2)sc2cc(S(N)(=O)=O)ccc21	-5%[15.4 µM]	-4.6	12%	0	-2	1
CCc1ccccc1NC(=O)CN(C)C(=O)c1cc(C2CC2)nc2c1cnn2C(C)C	?	-3.5	-25%	21	1	0
Cc1ccc(SCCNC(=O)c2ccccc2)cc1	24%	-3.2	-10%	-1	-22	6
CCOC(=O)CC(=O)CSc1nc(N)c(C#N)c(-c2ccc(Cl)cc2)c1C#N	-39%[inhibitor]	-0.9	-12%	-1	-16	-11
O=C(C(=O)N1CCN(c2ccccc2)CC1)c1cn(CC(=O)N2CCCCCC2)c2ccccc12	-16%	2.4	-33%	-4	-4	-2
COc1ccc(CN(C)CC(=O)Nc2cc(OC)c([N+](=O)[O-])cc2C)c(OC)c1	-74%[inhibitor]	-0.2	?	-21	-34	-12
CC(C)CNC(=O)c1noc2c1CCCC2	-77%[inhibitor]	-1.8	8%	1	-3	10
CCCCNC(=O)CCn1c(=O)c2cccn2c2ccc(F)cc21	4%	-2.7	6%	-5	-12	1
CN(CCc1ccccn1)Cc1ccc(Cl)c(Cl)c1	21%	-4.0	13%	-6	-11	-5
c1ccc(-c2cc3c(ccc4nonc43)nn2)cc1	4%	-3.4	4%	-2	-8	5
CC(=O)c1ccc(NC(=O)[C@@H]2CCCN2C(=O)OC(C)(C)C)cc1	7%[15.4 µM]	1.0	0%	24	5	13
COc1ccc2oc(=O)c(C(=O)NC3CCCCCC3)cc2c1	-8%[15.4 µM]	-4.9	-3%	20	-4	15
O=C(CN1CCCC1)NC(c1ccccc1)c1ccccc1	-1%[15.4 µM]	-2.1	17%	-18	-13	-3
CCn1c(CCC(=O)Nc2nc3c(s2)CCCC3)nc2cc(S(=O)(=O)N(C)C)ccc21	5%	-2.1	-13%	-5	5	-3
COc1ccc(C2=NS(=O)(=O)N(C)C(C(=O)NCc3ccccc3)=C2)cc1OC	-36%[inhibitor]	-1.3	-8%	-9	-6	4
C/C(=N\Nc1ccccc1)c1cccs1	2%[15.4 µM]	-4.3	13%	1	-1	4
Cc1ccc(NC(=S)Nc2ncccc2C)c(C)c1	-45%[inhibitor]	0.1	-12%	?	-7	11
